# Screening data: PubChem BioAssay, ICCB-Longwood Screening Facility, Harvard Medical School
# LANA-nucl inh: inhibitors of KSHV LANA binding to nucleosomes; FITC-LANA1-23 / chicken nucleosome fluorescence polarization; hits give low values; z-score (concentration not given with the values); actives 0.3% (n = 51,000); AID 720717;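 active = both repeat wells score below -2 in polarization z-score versus plate sample wells, excluding overly bright wells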;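 note: 100 nL library stock added to about 30 µL; numbers are from one replicate; some results filed as inactive read as strong as hits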
#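 Assay system: purified chicken nucleosomes with FITC-labelled LANA N-terminal peptide (1-23) / Probe or stimulus: 50 nM FITC-LANA1-23 probe / Compound dosing: pin-transferred compound, 100 nL / Times: compound with peptide–nucleosome mix 10–45 min at room temperature / Technique: fluorescence polarization, 480 nm excitation, 535 nm parallel and perpendicular emission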
# BasE inh: blocks the Acinetobacter baumannii siderophore enzyme BasE; purified BasE, fluorescence polarization binding displacement; inhibition, % (no concentration beside the values); actives 0.1% (n = 84,000);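 active = both replicates above 25% with normal brightness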;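 note: 0% = negative plate control signal and 100% = positive plate control signal; stock transfer was 100 nL into about 30 µL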
# Numbers without * were called inactive; · = not tested or not shown; & = joins results of further samples. Not all compounds are listed; count on the stated rates, not on these rows.
# Sequence of screens – LANA-nucl inh	BasE inh
CCCCn1nnnc1COC(=O)c1ccc(OCC(=O)N2CCOCC2)c(OC)c1
 : ·	0.4
CCOC(=O)c1ccoc1CN1c2cccc3cccc(c23)S1(=O)=O
 : ·	-0.5
NC(=O)Cn1cnc2sc3c(c2c1=O)CCCC3
 : -0.859	3.1
COc1ccc(CCn2c(C)cc(C(=O)CSc3nnc(-c4cccnc4)n3C3CC3)c2C)cc1
 : ·	1.4
C[C@H](NC(=O)c1ccco1)C(=O)Nc1cccc(-c2nnc3n2CCCCC3)c1
 : ·	-0.4
CC1=CC=CC2C(=O)/C(=C\c3sc(=S)[nH]c3O)C(=NCCCn3ccnc3)N=C12 (stereo not given)
 : ·	-16.6
CCC(C)OC(=O)COc1ccc2c(=O)c(Oc3cc(C)ccc3C)coc2c1 (stereo not given)
 : ·	-0.1
CC1CC(C)CN(C(=O)c2cc3ccc4cccnc4c3[nH]2)C1 (stereo not given)
 : ·	-4.9
CN(Cc1csc(Nc2ccccc2)n1)Cc1cccs1
 : ·	-0.7
CCCN(CCC)C(=O)Cn1c(=O)n(CCC(=O)NCCc2ccccc2)c(=O)c2ccccc21
 : -0.193	-0.2
O=C(O)CNC(=O)c1sc2ccccc2c1Cl
 : -0.972	0.2
O=C(NCc1ccncc1)C1CC(=O)N(c2ccc(Cl)cc2)C1 (stereo not given)
 : -0.0855	-0.6
COc1ccc(NC(=O)n2ncc3c(C)cccc32)cc1
 : 0.24	-1.1
CCN(CC)S(=O)(=O)c1ccc2c(c1)nc(CCC(=O)Oc1ccc3c(c1)OCO3)n2CC
 : ·	0.1
S=c1sc2c(s1)SC1C(CC3C4C=CC(C4)C31)S2 (stereo not given)
 : -0.418	0.0
Cc1cc(=O)[nH]c(SCc2nc(-c3cccs3)no2)n1
 : 0.818	-0.1
CCOC(=O)c1cnc2ccccc2c1NCCCO
 : 2.81	-2.0
CC(=O)NCc1ccc(C(=O)Cn2nc(C(=O)O)c3ccccc3c2=O)o1
 : ·	3.3
COc1cccc(/C=N/n2c(-c3ccco3)nc3ccccc3c2=O)c1
 : -1.55	0.1
Cc1ccccc1-c1nnn(CC(=O)N2c3ccccc3NC(=O)C2(C)C)n1
 : ·	2.1

# Among those listed so far, 2 contain an aryl thioether with sulfur outside any ring.
# Sequence of screens – LANA-nucl inh	BasE inh
COc1ccc(CCn2c(C)cc(C(=O)CSc3nnc(-c4cccnc4)n3C3CC3)c2C)cc1
 : ·	1.4
Cc1cc(=O)[nH]c(SCc2nc(-c3cccs3)no2)n1
 : 0.818	-0.1

# (continued)
# Sequence of screens – LANA-nucl inh	BasE inh
S=c1[nH]nc(-c2sc3ccccc3c2Cl)n1CCN1CCOCC1
 : ·	6.0
O=C(OCCOc1ccc(Cl)cc1)c1ccc(O)cc1O
 : ·	2.0
O=C(N1CCN(Cc2ccc3c(c2)OCO3)CC1)N1c2ccccc2Sc2ccccc21
 : 0.124	2.2
CN1CCN(C(=O)c2ccccc2C(=O)O)CC1
 : -0.845	3.8
O=C(c1ccc(Cl)cc1)n1nc(-c2cccnc2)nc1NCc1ccco1
 : -0.416	0.7
CCCCSc1ncnc2sccc12
 : ·	0.5
Cc1ccccc1NC(=O)c1sc(N)c(C(N)=O)c1C
 : 0.182	-1.0
O=C(O)c1cc2c(cc1NC(=O)C13CC4CC(CC(C4)C1)C3)OCCCO2
 : ·	-0.4
CCOC(=O)Cc1cc(=O)[nH]c(/N=C(\N)Nc2ccc3ccccc3c2)n1
 : -0.176	0.9
O=C(c1ccccc1Oc1ccccc1)N1CCN(c2ccccc2)CC1
 : ·	1.0
COc1ccc2c(c1)c(=O)oc1cc(OC(C)C(=O)O)ccc12 (stereo not given)
 : 0.217	0.1
COCCN1C2=C(C(=O)CC(C)(C)C2)C(c2cc(Br)c(O)c(OC)c2)C2=C1CC(C)(C)CC2=O
 : 0.337	1.6
CC(C)(C)c1nc(NCc2cccs2)c2nnn(Cc3ccccc3Cl)c2n1
 : -0.682	2.5
COc1ccc(C2CC(c3ccc(Br)cc3)=NN2C(=O)CSc2nnc3[nH]c(=O)cc(C)n23)cc1 (stereo not given)
 : 0.325	-1.9
O=C1CS/C(=N/c2nc(-c3ccccc3)cs2)N1
 : -0.43	1.9
Cc1ccn(C(=O)c2ccc(NC(=O)C3CCCCC3)cc2)n1
 : 0.631	0.6
CCC(c1nnnn1CCOC)N(Cc1cc2ccc(OC)cc2[nH]c1=O)C1CCCC1 (stereo not given)
 : -0.461	-0.9
CC(=O)Oc1cc(C)ccc1C(C)C
 : ·	-1.3
N#Cc1cc2c(=O)n3ccccc3nc2n(-c2nccs2)c1=O
 : -0.87	2.9
O=C(c1ccco1)N1CCN(CC(O)COC(c2ccc(Cl)cc2)c2ccc(Cl)cc2)CC1 (stereo not given)
 : ·	-0.5
NNc1nnc(Cl)c2ccccc12
 : 0.213	1.9
Cc1nn(-c2ccccc2)c2c1C(c1ccccc1)C(NC(=O)c1ccccc1)C(=O)N2 (stereo not given)
 : ·	-1.6
CSc1nc(N)nc(-c2cccs2)c1C#N
 : -0.0905	1.8
CCCNc1ccc(F)cc1
 : -0.102	1.7
CC(C)(C)NC(=O)Nc1cc(C(F)(F)F)cc(C(F)(F)F)c1
 : ·	0.7
COc1ccc(/C=C2\SC(=S)N(/N=C/c3ccc(OC)cc3)C2=O)cc1
 : ·	0.5
Cc1cccc(-c2nc3ccccc3c(=O)o2)c1
 : -0.811	0.5
O=C(c1ccco1)N1CC2(c3ccccc3)CN(C(=O)c3ccco3)CC(c3ccccc3)(C1)C2=O
 : -0.382	-0.1
COc1cc(OCc2ccccc2)ccc1CN1CCN(c2ccc(C(F)(F)F)cn2)CC1
 : ·	3.2
NC(=O)CC1SC(N)=NC1=O (stereo not given)
 : 0.276	-0.3
COc1cc(C(=O)OCc2nnc(-c3ccccc3)o2)ccc1OCC(=O)Nc1ccc(F)cc1
 : ·	2.5
Cc1noc(C)c1C(=O)O/N=C(/c1cccs1)C(C)(C)C
 : -0.577	1.4
O=S(=O)(c1ccccc1)c1cnc2cc3c(cc2c1N1CCCCC1)OCCO3
 : -0.778	-0.7
O=C1C(c2sc(=S)n(-c3ccccc3)c2O)=Nc2ccccc21
 : ·	0.5
Cc1nc2cc(CO)ccc2s1
 : ·	0.3
C=CCN1C(=O)C(Cc2cccc(Cl)c2)SC1=Nc1ccc(C(=O)O)cc1 (stereo not given)
 : ·	0.5
CC(C)CCNc1ncnc2c1sc1nc3c(cc12)COC(C)(C)C3
 : ·	2.8
Cc1cccc(NCN2C(=O)C3C4C=CC(C4)C3C2=O)c1 (stereo not given)
 : ·	1.9
Cc1ccccc1C(=O)Nc1ccc2c(c1)n(C)c(=O)c(=O)n2C
 : -0.24	0.7
CCNc1nc(NCC)n2c(SCC(=O)/C=C3/N(C)c4ccccc4C3(C)C)nnc2n1
 : ·	-2.2

# Exported field by field: 4 of the compounds above
NC(=O)Cn1cnc2sc3c(c2c1=O)CCCC3
  LANA-nucl inh = -0.859
  BasE inh = 3.1
COc1ccc(CCn2c(C)cc(C(=O)CSc3nnc(-c4cccnc4)n3C3CC3)c2C)cc1
  LANA-nucl inh = ·
  BasE inh = 1.4
C[C@H](NC(=O)c1ccco1)C(=O)Nc1cccc(-c2nnc3n2CCCCC3)c1
  LANA-nucl inh = ·
  BasE inh = -0.4
CC1=CC=CC2C(=O)/C(=C\c3sc(=S)[nH]c3O)C(=NCCCn3ccnc3)N=C12 (stereo not given)
  LANA-nucl inh = ·
  BasE inh = -16.6

# New compounds follow
# Sequence of screens – LANA-nucl inh	BasE inh
COCc1[nH]c(=S)[nH]c(=O)c1C
 : 0.319	-0.6
Cc1ccccc1C(=O)NC1CCN(CC(=O)NC2CCCCC2)CC1
 : -0.124	2.7
COC(=O)c1c(-c2cccs2)csc1NC(=O)CN1CCOCC1
 : ·	2.4
CS(=O)(=O)N1CCN=C1SCc1ccccc1
 : -1.69	1.1
CC(=O)N/N=C/c1c(C)[nH]n(-c2ccccc2)c1=O
 : -1.29	0.5
O=C(NC1CCN(Cc2cccc3ccccc23)CC1)c1ccccc1
 : ·	-1.5
CC(C)(C)c1ccc(C(=O)Nn2cnc3c(cnn3C(C)(C)C)c2=O)cc1
 : -1.81	2.0
Cc1ccc(OC(=O)c2ccc3snnc3c2)cc1
 : -1.33	1.8
Cc1cc(S(=O)(=O)NCC(C)C)ccc1OCC(N)=O
 : 0.925	-0.7
O=C(CSc1nnc(CN2CCCCCC2=O)n1-c1ccccn1)c1ccccc1
 : ·	1.4
CCCCCOc1ccc(C(=O)/C=C/C(=O)O)cc1
 : ·	1.6
Cc1cccc(-c2noc(CN(C(=O)CCCN3C(=O)c4ccccc4C3=O)C3CCCCC3)n2)c1
 : -0.46	0.1
Cc1nc(C)c(-c2csc(NCc3ccccc3)n2)s1
 : 0.457	-2.2
Cc1cc(C)c2c(N)c(C(=O)Nc3ccccc3)sc2n1
 : ·	0.8
CCN1CCCC1CNC(=O)Nc1c[nH]c2ccc(C)cc2c1=O (stereo not given)
 : -0.587	0.2
CC12CC3CC(C1)CC(NC(=O)c1ccc(Cl)cc1Cl)(C3)C2
 : ·	0.5
Cc1cc(OCC(=O)N2CCOCC2)ccc1NC(=O)C1CCCCC1
 : 0.374	2.3
NNC(=O)c1c(NC(=O)c2ccccc2)sc2c1CCC2
 : 0.824	-2.0
O=c1oc2c3c(ccc2c2c1CCCC2)OCN(CCc1ccccc1)C3
 : 0.234	-12.7
CCn1c2ccc(C)cc2c2nc(C)sc21
 : 0.0135	8.1

# Remaining list, next part.
canonical_smiles	LANA-nucl inh	BasE inh
CC1CCc2c(sc(NC(=O)COC(=O)c3ccco3)c2C#N)C1 (stereo not given)	·	0.3
CC(=O)NC(=S)Nc1cccc(C#N)c1	-0.633	-0.8
CCCCN(C(C)C)S(=O)(=O)c1ccc(C)cc1	·	0.0
CN(CC(=O)Nc1sc2c(c1C#N)CCC2)Cc1nc2ccccc2c(=O)[nH]1	·	-0.4
O=C(/C=C/c1ccc2c(c1)OCO2)Nc1ccc(S(=O)(=O)N2CCCCC2c2cccnc2)cc1 (stereo not given)	-0.088	0.7
CCN1CCSC1=NCc1cccs1	·	0.1
O=C1CCCN1C(=O)CSc1nnc2c(Cl)cc(Cl)cn12	·	-0.4
Oc1ccccc1C=Nc1ccccc1C(F)(F)F	·	2.4
CCCn1c(=O)n(C)c(=O)c2c(SCc3nc(-c4cccc(Cl)c4)no3)nc(CC(C)C)nc21	·	-1.6
N#CCCOC1(C#CCN2CCCC2)CCCCC1	-0.5	4.1
O=C(CNc1ccc(F)cc1)N/N=C1\CCc2ccccc21	·	-1.3
O=C(O)c1ccc(-c2ccc(F)cc2)s1	·	3.3
CCc1ccc2c(c1)c1n[nH]c(=S)nc1n2C	·	3.2
CCn1cc(CN(C)C(=S)Nc2sc3c(c2C(=O)OC)CCC(C)C3)c(C)n1 (stereo not given)	-0.229	-0.6
O=C(C1CCC1)N1CCN(c2ccnc3cc(Cl)ccc23)CC1	·	1.6
COc1ccc(N2CCN(C(=O)CCN3C(=S)NC(C)(C)CC3C)CC2)cc1 (stereo not given)	-0.875	2.4
N#C/C(=C\C1CC=CCC1)c1nc2ccccc2[nH]1 (stereo not given)	-0.975	-1.6
CC1(C(=O)NCc2ccc3c(c2)OCO3)COC(c2ccccc2)OC1 (stereo not given)	0.675	4.9
CC1(C)CC(=O)C2=C(C1)NC(SCC(=O)Nc1ccccc1)=C(C#N)C2c1ccco1 (stereo not given)	0.019	-3.2
CC1CC1c1ccco1 (stereo not given)	·	-1.4
CCOC(=O)N/N=C/c1ccc2c(c1)OCCO2	·	0.8
CCCC(=O)N1CCC(c2ccc(OC)cc2)=N1	·	1.3
CCN(CC(=O)NC1CCS(=O)(=O)C1)C(=O)c1cc(OC)c(OC)c(OC)c1 (stereo not given)	·	0.3
CC(=O)Nc1ccc2oc(C)nc2c1	1.06	36.6*
COc1ccc(/C=C(/NC(=O)c2ccco2)C(=O)N2CCCCCC2)cc1OC	0.0575	-0.1
COc1ccc(C2=NCC(CSc3nnc(C(C)N(C)C)n3-c3ccccc3)S2)cc1 (stereo not given)	·	-3.5
CCn1c(=O)c2ccccc2n(CC(=O)Nc2ccc3c(c2)OCO3)c1=O	-2.12	1.1
CN(C)c1cc(Cl)nc(N(C)C)c1C#N	-0.215	·
O=C(CC1Nc2ccccc2NC1=O)Nc1cccc2ccccc12 (stereo not given)	0.667	0.3
Cc1cccc2cc(C(c3nnnn3CCc3ccccc3)N3CCN(c4nc5ccccc5s4)CC3)c(=O)[nH]c12 (stereo not given)	-0.606	2.5
CCc1ccc(OCC(O)CN2CCN(CC)CC2)cc1 (stereo not given)	·	-0.3
CCN1CCCC1CNCc1ccccn1 (stereo not given)	0.772	-2.1
Cc1ccc(S(=O)(=O)Nc2ccc(N3CCCCC3)cc2)cc1Cl	0.075	·
O=C(Oc1ccc(-c2nnco2)cc1)C1c2ccccc2Oc2ccccc21	·	0.4
O=C(Cn1cc(S(=O)(=O)N2CCCC2)c(S(=O)(=O)N2CCCC2)c1)N1CCCCCC1	·	0.2
Cc1nc2ccccc2c(=O)n1-c1cccc(NC(=O)c2ccc(Br)o2)c1	0.4	4.3
O=c1[nH]nc2n1CCCCC2	·	0.8
COC(=O)C(C)N(C#N)c1nc(C)nc(C)n1 (stereo not given)	-1.45	0.2
CC(C)(Oc1ccc(CCNC(=O)c2ccc(Cl)cc2)cc1)C(=O)O	0.668&0.198&-0.205&-0.052&-0.303	1.3&-2.5&0.5
CC/C(=N/NC(=O)c1ccccc1C)c1ccc(O)cc1	-0.144	2.5
CCOC(=O)C(Sc1nc(C)cc(=O)[nH]1)c1ccccc1 (stereo not given)	-0.0705	-0.4
